Compound activity (PubChem)
HNF4A DNA FP – change in binding of human HNF4 alpha to DNA; hit rate 0.3% among 360,000; P41235; HNF4a-FITC DNA binding, fluorescence polarization, 1 h; activity change, % at 10 µM; in the data active = activity change above about 30%, passing the limit was not always enough;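 also: controls were the assay level and a saturating level of protein; the project sought stronger binding though the title names inhibitors; some compounds called inactive have numbers as strong as hits; positive values seem to mean higher polarization but the record does not say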
Target sequence (P41235 whole entry, looked up): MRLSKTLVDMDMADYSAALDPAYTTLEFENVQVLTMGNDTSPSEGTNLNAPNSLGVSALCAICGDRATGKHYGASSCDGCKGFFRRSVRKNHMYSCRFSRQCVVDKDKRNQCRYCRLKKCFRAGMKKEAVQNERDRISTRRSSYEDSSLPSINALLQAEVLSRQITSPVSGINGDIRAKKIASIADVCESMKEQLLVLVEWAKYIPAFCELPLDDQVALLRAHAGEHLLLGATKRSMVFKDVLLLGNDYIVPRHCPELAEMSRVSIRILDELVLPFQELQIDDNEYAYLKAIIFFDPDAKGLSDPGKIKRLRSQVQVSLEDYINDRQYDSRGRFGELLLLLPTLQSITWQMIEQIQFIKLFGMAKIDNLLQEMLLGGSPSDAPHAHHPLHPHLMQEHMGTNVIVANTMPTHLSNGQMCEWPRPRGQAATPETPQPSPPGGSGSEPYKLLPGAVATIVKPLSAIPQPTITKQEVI
Calb FLC – C. albicans growth modulation with fluconazole; C. albicans CaCi-2 (fluconazole-resistant clinical isolate) + fluconazole, Alamar Blue growth, 48 h; growth inhibition, % (no concentration beside the values); hit rate 0.57% among 300,000; AID 1979;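 active = most replicates above 75%; inconclusive = exactly half above 75%; inactive = most below 75%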;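 also: all wells also contain fluconazole at 8 µg/ml as a sub-toxic cotreatment; 0% = median of DMSO wells and 100% = median of geldanamycin control wells; wells of about 8 µL received 7.5 nL stock; the first replicate is given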
ALR inh – inhibitors of human sulfhydryl oxidase ALR | P55789 | purified ALR, DTT oxidation, H2O2 HRP-luminol luminescence | inhibition, % (test concentration not listed) | hit rate 3.8% among 290,000 | AID 485317;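 active = mean and each replicate at 75% or more; inconclusive = only one of the two met; inactive = neither met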;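 also: stock transfer was 7.5 nL into about 7.5 µL; 0% = neutral wells and 100% = wells with inactivated enzyme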
Target sequence (P55789 whole entry, looked up): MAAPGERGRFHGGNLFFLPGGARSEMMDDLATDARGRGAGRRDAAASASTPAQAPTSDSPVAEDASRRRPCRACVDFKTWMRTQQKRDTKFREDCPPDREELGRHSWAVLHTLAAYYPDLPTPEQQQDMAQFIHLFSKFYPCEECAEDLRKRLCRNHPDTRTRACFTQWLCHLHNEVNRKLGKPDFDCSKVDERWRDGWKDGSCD
LANA-H2B inh – blocks KSHV LANA binding to histone H2A/H2B; Q9QR71; cell-free LANA-H2A/H2B peptide, fluorescence polarization; inhibition, % (no concentration beside the values); hit rate 0.6% among 320,000; in the data active = inhibition mostly above about 10%, no sharp cut-off; inactive = mostly below about 6.7%;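 also: stock transfer was 7.5 nL into about 10 µL; 0% = median of vehicle wells and 100% = median of positive control wells; one replicate is shown; the record names a cut of 25% in any replicate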
B2AR ag – human beta-2 adrenergic receptor agonism by FAP | Am2.2-beta2AR cells, FAP receptor internalization, flow cytometry; reference of the scale not given here | response, % (test concentration not listed) | hit rate 0.43% among 340,000 | AID 504454;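 active = response above a set limit, near 3 SD of response in nonfluorescent compounds, cut at about 42% in these data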;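 also: stock transfer was 100 nL into about 11 µL; a reference agonist was the positive control; negative values mostly stem from fluorescent compounds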
Target sequence (P07550 whole entry, looked up): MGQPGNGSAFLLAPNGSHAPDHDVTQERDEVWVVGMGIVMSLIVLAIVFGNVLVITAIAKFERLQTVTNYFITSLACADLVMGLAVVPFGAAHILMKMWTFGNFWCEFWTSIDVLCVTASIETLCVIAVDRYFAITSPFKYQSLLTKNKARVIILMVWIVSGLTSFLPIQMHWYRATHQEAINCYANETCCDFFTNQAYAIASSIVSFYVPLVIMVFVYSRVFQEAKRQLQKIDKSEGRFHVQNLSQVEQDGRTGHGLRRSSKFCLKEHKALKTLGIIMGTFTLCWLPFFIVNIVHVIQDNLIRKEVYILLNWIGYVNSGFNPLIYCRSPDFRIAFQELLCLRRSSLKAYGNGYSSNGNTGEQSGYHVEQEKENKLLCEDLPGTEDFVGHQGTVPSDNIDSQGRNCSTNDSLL
Vif TR-FRET – inhibitors of Vif binding to APOBEC3G peptide, primary screen, biochemical, TR-FRET, GST-Vif 1-94, biotin-A3G peptide, dose response retest (AID 1117319); TR-FRET GST-Vif / biotin-A3G peptide binding; higher % means a stronger effect; test concentration not given here; strong numbers were not always called active; inhibition, %, or IC50 in µM where a hit was titrated; hit rate 0.57% among 260,000;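 active = above the screen mean plus three standard deviations and confirmed in dose response; inconclusive = results disagree or hit not tested in dose response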;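 also: Vif residues 1-94 fused to GST binding biotinylated APOBEC3G peptide 110-148; 0% = full assay without inhibitor and 100% = GST in place of GST-Vif; retest series ran down from 100 µM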
RanGTP-Imp inh – inhibitors of RanGTP-importin-beta interaction, primary screen, biochemical, FRET, CFP-Ran, YFP-importin-beta, homogeneous. inhibition, % (test concentration not listed). cell-free CFP-Ran/YFP-importin-beta FRET ratio. hit rate 1.1% among 300,000;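 active = most replicates above 15%; inconclusive = exactly half above 15%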;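 also: 0% = DMSO wells and 100% = Ran loaded with GDP instead of GTP; wells of about 40 µL received 100 nL stock; the first replicate is given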
Numbers without * were called inactive; u = inconclusive; x = not tested or not shown; & = joins results of further samples. No enrichment for hits; about 6.3% have a hit in one of these screens.

SMILES	HNF4A DNA FP	Calb FLC	ALR inh	LANA-H2B inh	B2AR ag	Vif TR-FRET	RanGTP-Imp inh
CC1(C)CC(=O)C(=Cc2cn(CCC#N)nc2-c2ccc(F)cc2)C(=O)C1	0.2	-2	95*	0.0	16	x	4.5
CC(C)NCC(O)COc1ccc2c(c1)CCC2 (stereo not given)	2.4	0	-19	-3.2	-6	-1%	5.7
CC(=O)NC1=NN(C(C)=O)C(C)(c2ccccc2)S1 (stereo not given)	4.6	-10	2	2.3	-6	30%	-3.7
COc1ccc(NC(=O)c2cccc(N3C(=O)C4CC=C(C)CC4C3=O)c2)c(OC)c1 (stereo not given)	-0.4	5	3	4.8	22	x	4.5
O=C(NCc1ccccc1)/C(=C/c1ccccc1)NC(=O)c1ccco1	-2.4	-2	-3	0.1	10	x	u
CSc1ccc(/C=N/NC(=O)CN2CCN(Cc3ccc(Cl)cc3)CC2)cc1	-4.8	-8	x	2.9	-9	x	4.2
COc1ccccc1N1CC(C(=O)NCCC2=CCCCC2)CC1=O (stereo not given)	0.8	x	-5	-13	-1	-10%	x
CC12CCC(CC1=O)C2(C)C (stereo not given)	0.4	x	x	1.1	-2	x	x
COc1cc(/C(C)=N/NC(=O)c2ccc(CSc3nncn3C)cc2)cc(OC)c1OC	-1.7	-15	x	-3.8	7	7%	x
CCOC(=O)CN=C1CC(C)(C)CC2=C1Sc1ncnc(N(C)C)c1N2	1.9	5	x	x	10	-7%&0%	u
O=C(CCS(=O)(=O)c1cccc2nsnc12)NCc1ccccc1Cl	-2.5	u	-16	-4.0	x	-1%	-1.7
O=C(c1cccc(C(F)(F)F)c1)N1CCC2(CC1)NCCc1[nH]cnc12	1.3	19	x	3.2	-1	x	1.5
O=c1[nH]c([N+](=O)[O-])nn1C(c1ccccc1)c1ccccc1	0.1	3	-15	6.0	-3	-3%	-0.3
CCCC(=O)Nc1ccc(NC(=O)c2ccccc2)nc1	0.7	-7	-7	0.1	-15	9%	-2.3
CCN(c1ccc(NC(=O)COC(=O)c2ccc3ccccc3n2)cc1)C(C)C	-3.4	-4	96*	-1.1	6	6%	3.1
CCn1c(C)c(C(=O)c2ccccc2)c(C#N)c1C(=O)O	-0.2	-9	-5	-3.5	17	-4%	0.6
Cc1ccc(/C=N/NC(=O)Cn2cnc3ccccc32)cc1	4.6	23	-7	5.2	-11	x	3.6
CCn1c(=O)c2sccc2n(Cc2ccc(C)cc2)c1=O	2.5	-3	3	4.8	-4	x	-5.9
O=C(COC(=O)CSc1nnc(-c2ccc(Cl)cc2)o1)Nc1cc(Cl)cc(Cl)c1	1.2	7	-8	-0.9	-2	8%	0.5
CC(CC(=O)NCc1ccccc1)C1CCCO1 (stereo not given)	-3.8	-16	-3	2.1	3	u	5.4
O=C(CSc1ccc2c(c1)OCCO2)Nc1ncccc1O	-7.8	x	-10	-0.9	-4	x	-2.4
CCCc1cc(=O)[nH]c2nnc(SCC(=O)Nc3cccc(NC(C)=O)c3)n12	4.2	-1	x	x	2	-6%	6.1
S=C(NCc1cccs1)Nc1ccccc1Cl	-2.0	-18	1	2.7	3	11%	-2.6
CC1(C2(O)CCCCC2)NCCc2ccccc21 (stereo not given)	-2.6	x	x	x	11	-10%	x
O=C(CSc1ncccc1C(=O)O)NC1CCCCCCC1	-2.6	0	-3	-3.2	7	-1%	-8.3
CSc1nc(-c2ccco2)cc(C(F)(F)F)c1C#N	21	16	8	-3.9	1	5%	0.2
Cn1c(SCC(=O)c2ccc3c(c2)OCCO3)nnc1C1CC1	-5.2	-4	48	-0.7	-1	9%	-0.9
CCCn1c(=O)c(C(=O)NNS(=O)(=O)c2ccc(Cl)cc2)c(O)c2ccccc21	0.9	0	3	-5.2	-3	x	1.3
CCCCNc1cc(NC(C)=O)cc2cc(OC)c(OC)cc12	16	25	99*	-9.5	9	16%	21*
Cc1ccccc1N=Cc1cccc(O)c1O	-4.3	1	-87	-7.2	1	u	0.6
O=C(Cc1ccccc1)NC(Nc1ccccc1)C(Cl)(Cl)Cl (stereo not given)	-0.7	0	x	-4.1	1	28µM*	-2.3
COc1ccc(S(=O)(=O)N(C)CC(=O)NCc2cccnc2)cc1C	-0.2	5	-38	-3.0	-2	0%	2.2
COc1cccc(NC(=O)CN(C)C(=O)c2ccc(-c3ccc(Cl)cc3)o2)c1	-0.1	4	-8	3.0	4	-4%	4.4
N#C/C(=N\Nc1cccc(Cl)c1)C(=O)c1ccccc1	0.7	29	u	3.7	20	10%	-2.1
Cc1ccccc1OCC(=O)NCc1ccccc1	0.8	-21	-6	-1.3	-3	30%	3.1
CCOC(=O)c1cccc(NC(=S)NCc2ccc(C)cc2)c1	0.4	-6	x	1.9	0	9%	-3.7
O=C(O)COC(=O)C1C(c2ccccc2)C(C(=O)O)C1c1ccccc1 (stereo not given)	5.7	-2	-8	-1.2	-3	-8%	-3.7
CC(Cl)C(=O)NN=C(c1ccccc1)c1ccccc1 (stereo not given)	2.3	0	6	0.7	-5	3%	4.6
O=C1c2ccccc2C(=O)C1c1ccc(O)cc1	5.5	u	11	-5.0	5	-5%	x
COc1ccc(C(=O)NC2CC(C)(C)Cc3occc32)cc1 (stereo not given)	0.7	-17	10	-1.8	6	x	1.1
COc1ccc2c(c1)c1nc3ccccc3nc1n2CCCN1C(=O)c2ccccc2C1=O	30	-3	0	16	4	x	-2.6
COc1cc(C2NC(=O)NC(C)=C2[N+](=O)[O-])cc(OC)c1OC (stereo not given)	1.3	-2	15	-6.0	8	u	-0.9
CNC(=S)NCc1ccc(OC)cc1	2.5	6	-11	0.0	1	-3%	-0.5
NS(=O)(=O)c1ccc(CCNC(=O)COC(=O)/C=C/c2ccc(OC(F)F)cc2)cc1	1.6	x	x	x	-5	-6%	x
Cc1nc(-c2coc3c(CN(C)C)c(O)ccc3c2=O)cs1	-4.3	2	1	-17	0	29%	-0.2
Cc1cccc(C)c1OCc1cc(C(=O)N2CC3C[C@@H]4CC2C[C@H](C3)C4)no1	0.1	-32	-1	4.5	-5	x	0.0
O=C(COc1cc(Cl)c(Cl)cc1Cl)Nc1ccc([N+](=O)[O-])cc1Cl	1.6	1	-5	-5.1	-10	-2%	10
Cc1cc(C)c(S(=O)(=O)c2ccc(C(C)(C)C)cc2)c(Cl)n1	-0.6	-28	-18	-0.9	-11	-9%	2.9
COc1ccc(OC)c(CN2CCN(C(=O)c3ccc(F)cc3)CC2)c1	2.1	7	-7	2.9	-2	x	-1.1
O=C(Cc1ccccc1)NCc1ccc(F)cc1	2.2	5	-6	-6.0	1	x	0.2
CCS(=O)(=O)c1nc2ccccc2n1Cc1ccccc1Cl	-0.2	16	-17	-1.3	10	2%	7.1
O=C1O[C@@H](c2ccc(O)cc2)Cc2cccc(O)c21	4.6	x	58	0.5	-4	x	x
CC(C)=CC(=O)Nc1nnc(-c2ccccc2)s1	-1.8	-11	-1	1.4	1	0%	-3.8
CC(=O)c1cc(C)ccc1OC(=O)c1cccnc1	-1.1	17	x	-2.7	-3	-5%	u
Cc1cc(-c2nnc(CCC(=O)N(C)Cc3ccsc3)o2)no1	-1.6	2	-2	6.0	5	-8%	5.9
COc1cccc(NC(=O)CS(=O)(=O)c2cccc3nsnc23)c1	0.3	0	x	-1.9	5	-1%	3.1
O=C(CSC(=S)N1CCCCC1)N1N=CCC1c1ccccc1 (stereo not given)	1.1	-2	-8	-0.4	-6	-2%	-3.3
COC(=O)c1[nH]c2ccc(Br)cc2c1NC(=O)CN1CCCCC1CCO (stereo not given)	0.9	12	0	0.3	-2	-7%	4.3
O=C(Nn1cnnc1)c1ccccc1CCc1ccccc1	1.3	-8	3	1.4	3	-9%	-2.2
c1ccc(C[C@H]2CNCCN2CC2CCCCC2)cc1	3.6	-5	5	2.6	-2	x	-4.9
Following part.
SMILES	HNF4A DNA FP	Calb FLC	ALR inh	LANA-H2B inh	B2AR ag	Vif TR-FRET	RanGTP-Imp inh
Cn1cnnc1SCc1ccc(C(=O)NN)cc1	0.6	-5	-14	-0.5	-2	x	-2.0
CC(C)C(NC(=O)OCc1ccccc1)C(=O)OCC(=O)N1CCCCC1 (stereo not given)	-0.9	7	-3	-6.3	-3	7%	2.4
Cc1ccc(S(=O)(=O)N2CCCC2=O)c(C)c1N(C)S(C)(=O)=O	1.7	2	-8	-4.9	1	x	-3.0
COc1ccc(C(CNC(=O)c2ccco2)N2CCOCC2)cc1 (stereo not given)	-3.2	x	x	-3.1	-1	x	x
COC(=O)c1c(NC(=O)CCNCc2ccco2)sc2c1CCC2	-0.6	-9	60	-0.9	5	10%	-2.2
Cc1nc(C)c(-c2csc(NCCc3ccccc3)n2)s1	-2.1	-6	24	3.2	2	11%	2.9
Cc1cc(C(=O)N2CCN(c3cccc(Cl)c3)CC2)c(C)o1	-0.9	-24	5	-2.1	3	-5%	4.0
COC(C(=O)Nc1ccnn1C1CCN(Cc2cnn(C(C)C)c2)CC1)c1ccccc1 (stereo not given)	-3.7	-14	4	0.9	-5	-4%	0.6
Cc1cc(Nc2cccc(Cl)c2Cl)n2ncnc2n1	-2.0	116*	-4	4.4	6	-2%	7.5
N#CC1CC(c2ccc([N+](=O)[O-])cc2)=NN1c1ccc([N+](=O)[O-])cc1 (stereo not given)	87	-1	-37	2.9	-8	7%	2.4
c1ccc(-n2nnnc2SCc2ccccn2)cc1	-27	7	x	-0.8	-15	5%	-0.9
Cc1ccccc1Nc1nc(N)nc(CSc2nnc(C)n2C)n1	3.3	-1	-7	2.8	1	x	-1.5
CCCNC(=O)COC(=O)C1CCN(S(=O)(=O)c2ccc3c(c2)OCCO3)CC1	0.8	1	-3	-6.6	3	-6%	x
CCOC(=O)c1[nH]c2cc3c(cc2c1NC(=O)CN1CCc2ccccc2C1)OCO3	-0.6	1	-13	2.1	13	-7%	-1.7
O=C(NCC1CCCO1)C1CCN(C2CCN(Cc3cccs3)CC2)CC1 (stereo not given)	4.1	5	-5	-0.4	-4	4%	7.7
Cc1ccccc1OCC(=O)NCCCNC(=O)c1ccncc1	2.2	23	-2	2.6	8	x	0.7
N#Cc1c(N2CCCC2)nsc1-c1ccccc1	-1.5	-16	x	-1.2	-2	-24%	-1.2
CCCCn1c(CCNC(=O)CCC)nc2ccccc21	-1.4	-5	7	-4.1	-6	1%	4.3
Nc1nc(OCC2CCCCC2)c2[nH]cnc2n1	0.1	-4	97*	3.6	-11	x	4.7
CCN(CC)P(=O)(Nc1ccc(SC(F)F)cc1)c1ccc(N(C)C)cc1NC(=O)c1ccco1 (stereo not given)	-1.0	1	x	2.4	8	-2%	6.4
Cc1ccc(C(=O)Nc2nc(=O)n(C(=O)CC(C)C)s2)cc1	-0.5	9	19	-0.1	7	1%	3.9
CCOc1cc(/C=N/O)cc(Br)c1OC	-7.2	14	0	1.3	12	2%	-0.6
COc1ccc(C(=O)NCC(=O)Nc2ccc(F)cc2)cc1OC	1.2	-8	-4	1.2	9	2%	-2.9
CC(=O)c1ccc(OC(C)C(=O)NCC2(N3CCOCC3)CCCCC2)cc1 (stereo not given)	1.6	x	-1	1.1	-6	-4%	x

Grouped by structure, those above with a COOH group
SMILES	HNF4A DNA FP	Calb FLC	ALR inh	LANA-H2B inh	B2AR ag	Vif TR-FRET	RanGTP-Imp inh
CCn1c(C)c(C(=O)c2ccccc2)c(C#N)c1C(=O)O	-0.2	-9	-5	-3.5	17	-4%	0.6
O=C(CSc1ncccc1C(=O)O)NC1CCCCCCC1	-2.6	0	-3	-3.2	7	-1%	-8.3
O=C(O)COC(=O)C1C(c2ccccc2)C(C(=O)O)C1c1ccccc1 (stereo not given)	5.7	-2	-8	-1.2	-3	-8%	-3.7
